fixLJ activator: B. multivorans fixK reporter activation | z-score (test concentration not listed) | B. multivorans fixK-promoter GFP reporter, 18 h; stronger effect = higher value | actives 0.3% (n = 29,000);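 active = replicate mean overnight rise in green fluorescent reporter signal, 3 or more SD over negative controls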;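 also: score is relative to vehicle wells of the plate; 300 nL library stock went into each well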
Active calls of the source: *; & = joins results of further samples. Some of the compounds tested (hit frequency here may not be typical).

SMILES | fixLJ activator
O=C(COc1ccc(S(=O)(=O)NC2CCCCC2)cc1)Nc1ccc(C(F)(F)F)cc1 | -2.1
COc1ccc(OC)c(CCNC(=O)CN2C(=O)COc3ccc(S(=O)(=O)N4CCCCCC4)cc32)c1 | -0.54
Cc1ccc(N(C(=O)c2cccc(C)c2)S(=O)(=O)c2ccc(Cl)cc2)cc1 | 1.2
CC(C)c1ccccc1NC(=O)C(Cc1c[nH]c2ccccc12)NC(=O)OC(C)(C)C (stereo not given) | 0.36
CC1CCN(C(=O)Cn2ncc3c4ccccc4n(Cc4ccc(Cl)cc4)c3c2=O)CC1 | 7.3*
N#Cc1nccnc1N1CCC(N2CC(COc3ccc(F)cc3)OCC2=O)CC1 (stereo not given) | -1.8
Cc1cccc(C(C)C)c1NC(=O)Cn1c(=O)oc2cc(S(=O)(=O)N3CCCC3)ccc21 | -0.27
COC1C(NC(=O)Cc2ccccc2C)c2ccccc2C12CCNCC2 (stereo not given) | -0.95
CCOc1ccc(C(=O)Nc2c(C(=O)c3ccc(OC)cc3)oc3ccccc23)cc1 | -0.44
CCCc1cc(N2CCN(c3ccccc3F)CC2)n2cnnc2n1 | -0.64
COc1ccc(-c2nn(-c3ccccc3)cc2C(=O)Nc2ccccc2OC)cc1 | 4.6*
Cc1nc(CCNc2cc(C3CC(N)C3)nc(N)n2)nc2c1CCC2 (stereo not given) | -0.81
CCCC(=O)N1CC(=O)Nc2ccc(Cl)cc2C1c1ccccc1 (stereo not given) | -2.1
COc1ccc(C2N=C(N)Nc3nc4ccccc4n32)c(OC)c1OC (stereo not given) | -1.8
COc1cc(NC(=O)CSc2nccn2C)cc(OC)c1OC | -0.35
CCCc1cc(N2CCN(c3ccccc3)CC2)n2cnnc2n1 | -1.6
COc1cc2[nH]c(=O)n(-c3ccc(C)cc3)c(=O)c2cc1OC | -0.58
COC(=O)c1ccc(C(=O)OC)c(NC(=O)c2c(-c3ccccc3)noc2C)c1 | -0.69
CCc1ccc(NC(=O)C2CCN(S(=O)(=O)c3c(C)noc3C)CC2)cc1 | -1.1
COc1ccccc1CNC(=O)CSc1nc2nc(C)c(Cc3ccccc3C)c(C)n2n1 | 1.4
CCc1cc(C(C)NC(=O)c2ccc(-n3cnnc3)cc2)on1 (stereo not given) | 1.5
Cc1cccn2cc(-c3cccc(NS(=O)(=O)c4ccc(Cl)c(Cl)c4)c3)nc12 | 1.7
CCCOc1c(CN2CCC3C(C2)CN3Cc2ccn[nH]2)cc(Cl)cc1OC (stereo not given) | -0.94
Cc1ccc2c(=O)cc(C(=O)N(Cc3ccc(N(C)C)cc3)C3CCS(=O)(=O)C3)oc2c1 (stereo not given) | -1.8
NCCc1cc(O)c(O)cc1O | 2.2
COc1cccc(C(C(=O)NCc2ccccc2)N(C(=O)Cn2nnc3ccccc32)c2cccc(C(C)=O)c2)c1 (stereo not given) | -3.9
COc1cccc(-c2cc(C(F)(F)F)n3nc(C)c(-c4ccccc4)c3n2)c1 | 2.2
COc1ccc(Nc2cc(C(=O)NCc3ccccc3)c3ccccc3n2)cc1 | -0.1
CCOc1ccc(CCNC(=O)CCc2c(C)nc3c(c(C)nn3-c3ccccc3)c2C)cc1OCC | -1.5
CC(C)CC(NC(=O)C1CCCCC1)C(=O)Nc1cccc(C(F)(F)F)c1 (stereo not given) | 0.12
COc1ccc(-c2nnc(SCC(=O)N3CCc4ccccc43)o2)cc1OC | -0.81
Cc1c2cnn(-c3ccccc3)c(=O)c2c(C)n1CC(=O)N1CCN(c2cccc(Cl)c2)CC1 | -2.1
O=C(Nc1cccc(C(F)(F)F)c1)C1CCCN1S(=O)(=O)c1cccc2nsnc12 (stereo not given) | -2.1
COc1cc(C2c3c(-c4ccccc4O)n[nH]c3C(=O)N2Cc2ccco2)ccc1OCC(C)C (stereo not given) | 0.64
CCC(=O)N1CCc2cc(Br)cc(S(=O)(=O)CCC(=O)NCc3ccccc3)c21 | 0.37
COc1cc(C)ccc1CN1CCn2nc(CNC(C)=O)cc2C1 | -0.88
O=C(NCc1ccccc1)c1ccc2c(c1)N(Cc1ccc(F)cc1)CCS2 | 1.9
COc1ccc(C(=O)NCCSc2c(C)[nH]c3ccccc23)cc1 | -0.26
COc1cccc(C(=O)NC2CCOCC2OCc2cscn2)c1O (stereo not given) | -0.05
CCOC(=O)c1ccccc1NC(=O)c1cc2c(s1)-c1ccccc1SC2 | -0.76
COc1ccc(-c2noc(CN(C)S(=O)(=O)c3c(C)cc(C)cc3C)n2)cc1OC | 1.1
Cc1ccc(NC(=O)C2CCCN2S(=O)(=O)c2cccc3cccnc23)c(C)c1 (stereo not given) | -1.3
Cc1ccc(C)c(NC(=O)NCc2cc3n(n2)CCCN(CC(C)C)C3)c1 | 0.36
Cc1cccc2c1N(Cc1ccccc1OCCC(C)C)C(=O)C2=O | 0.75
CCOC(=O)N1CCc2c(sc3c2c(=O)n(Cc2ccccc2)c(=O)n3Cc2ccccc2Cl)C1 | 0.04
O=c1c2sc3ccccc3c2n(Cc2cccc(Cl)c2)c(=O)n1Cc1ccco1 | -0.88
O=C(O)c1cc(-c2ccccc2F)cc(S(=O)(=O)N2CCSCC2)c1 | -2.1
Cc1ccc(CCNC(=O)CN(c2ccc(C(C)C)cc2)S(=O)(=O)c2c(C)nn(C)c2C)cc1 | 0.44
CCOc1cccc(C2Nc3ccccc3-c3cc(C)nn32)c1O (stereo not given) | -0.07
CO[C@@]12[C@H](COC(N)=O)C3=C(C(=O)C(C)=C(N)C3=O)N1C[C@@H]1N[C@@H]12 | -4.6
CCn1cnc2c(=O)oc3ccc(S(=O)(=O)N4CCN(c5cc(C)ccc5C)CC4)cc3c21 | -0.55
O=C(NCc1cc(-c2cccnc2)no1)c1ccc2c(c1)CCCC2 | 0.84
CC(=O)c1cccc(NC(=O)Nc2c(C)n(C)n(-c3ccccc3)c2=O)c1 | 0.18
CCn1nccc1C(=O)N1CCC(c2nnc(CN3CCCCC3)n2C)CC1 | -2.4
CC1CCc2c(sc(NC(=O)c3ccc(Cl)cc3Cl)c2C#N)C1 (stereo not given) | 0
COc1cccc(CNC(=O)C(Cc2ccccc2)NS(=O)(=O)c2ccc3c(c2)CCN3C(C)=O)c1 (stereo not given) | -2.3
Cc1[nH]nc(C(=O)NC2COCC2Cc2ccncc2)c1Cl (stereo not given) | 0.6
O=C(Cn1ncc2c3ccccc3n(Cc3ccccc3F)c2c1=O)NCCc1ccc(Cl)cc1 | -3.5
CCC(C)NC(=O)Cn1c(=O)n(-c2cc(OC)cc(OC)c2)c(=O)c2ccccc21 (stereo not given) | 0.04
COc1ccc(-c2c(C)nn3c(C(F)(F)F)cc(-c4ccc(Br)cc4)nc23)cc1 | -0.33

Next records follow.
SMILES | fixLJ activator
Cc1cccc(N2CCC(NC(=O)C3OCC(=O)NC3c3cccnc3)CC2)c1 (stereo not given) | 0.24
CCOC(=O)c1c(NC(=O)COc2ccccc2Br)sc2c1CCCCC2 | 0.11
Cc1cc(C)cc(NC(=O)c2ncn(-c3ccccc3)n2)c1 | -2
CCNc1nc(Oc2ccc(=O)n(-c3ccccc3)n2)nc(N(C)C)n1 | -0.33
CCOc1ccc(CCNC(=O)c2ccc3nc(N4CCC(C)CC4)sc3c2)cc1OCC | -0.87
COc1ccccc1C(=O)Nc1ccc(NC(=O)c2cccs2)cc1 | -0.46
CC(C)N1C(=O)C(O)(c2c[nH]c3ccccc23)c2ccccc21 (stereo not given) | -0.62
CCc1ccc(NS(=O)(=O)c2ccc3[nH]cc(C(=O)NCc4ccc(C)cc4)c(=O)c3c2)cc1 | -0.22
Cn1nc(-c2ccccc2F)c2cc(C(=O)NCc3cccc(Cl)c3)sc21 | 1.2
Clc1ccc2c(c1)CCc1cccnc1C2=C1CCNCC1 | -1.9&-0.46
COc1ccc(NC(=O)c2ncn(-c3ccccc3)n2)cc1Cl | -1.5
COc1ccc2cc3cc(C(=O)Nc4cc(C)c(Cl)cc4OC)oc3nc2c1 | -1.2
COc1ccc(-c2nnc(Nc3ccc(OCC(N)=O)cc3)c3ccccc23)cc1 | -0.59
CCOc1ccc(C2=NC(c3ccc(OC)cc3)=Nc3ccc(Cl)cc3N2)cc1 | -1.7
COc1ccc(NC2(C(=O)N3CCN(C(C)=O)CC(O)C3)CCCCC2)cc1 (stereo not given) | -0.16
COc1cccc(CN2CCN(C(=O)Cn3cc(C)cn3)CC2=O)c1 | 0.05
COC(=O)c1c(N)n(-c2cc(Cl)cc(Cl)c2)c2nc3ccccc3nc12 | -0.19
O=C(CSc1nnc(CNC(=O)c2c(F)cccc2Cl)o1)Nc1cccc(F)c1 | 0.19
O=C(CSc1nnc2scc(-c3ccccc3)n12)Nc1ccc(Cl)cc1 | -2
COC(=O)c1c(NC(=O)c2nc(SCc3ccc(C)cc3)ncc2Cl)sc2c1CCCC2 | 0.25
C[C@](N)(Cc1ccc(O)c(O)c1)C(=O)O | -0.9&0.46
CCOC(=O)C1CCCN(C(=O)Cn2nc(C)n3c(cc4c(OC)cccc43)c2=O)C1 (stereo not given) | 0.08
CNCC(=O)N1CCC2(CC1)OCCc1sc(C(=O)NCC(C)O)cc12 (stereo not given) | -2.6
Cc1ccc(CN2CCN(Cc3ccccn3)C3CS(=O)(=O)CC32)o1 (stereo not given) | -0.11
Cc1cc(C)n(CCCNC(=O)c2cccc(-c3cnc(=O)[nH]c3)c2)n1 | 0.72
COc1ccc(NC(=O)c2sc3nc(C(F)(F)F)cc(C)c3c2N)cc1OC | -2.7
CC1CCN(S(=O)(=O)c2ccc3c(c2)N(CC(=O)NC(C)c2ccccc2)C(=O)CS3)CC1 (stereo not given) | -0.4
CCc1nn(CC(=O)NCCc2ccc(OC)cc2OC)c(=O)c2cc3sccc3n12 | -0.68
CCc1ccc(NS(=O)(=O)c2cc(Br)cc3c2N(C(C)=O)CC3)cc1 | 1.1
CC1(C(=O)N2CCC3(CCC(=O)N(CCc4ccccn4)C3)CC2)CCCO1 (stereo not given) | -0.82
Cc1ccccc1CN1CCC(c2nnc(Cn3ccnc3)n2C2CC2)CC1 | -0.5
CCc1ccc(CNc2ncnc3onc(-c4ccc(Cl)cc4)c23)cc1 | 2.3
Cc1nn(C(=O)c2ccccc2)c(C)c1Sc1ccc(Cl)cc1 | 2.2
Cc1cccc(OCC(=O)N2CC(CO)C(CN(C)C)C2)c1C (stereo not given) | 0.2
CCCOc1ccc(C(=O)Nc2cccc(NC(=O)c3cccc(Cl)c3)c2)cc1 | 0.22
COC(=O)c1ccc(C2c3c(oc4ccccc4c3=O)C(=O)N2c2nc(C)c(C(=O)OC)s2)cc1 (stereo not given) | -1.9
CCN1CCOC(=O)C1CC(=O)Nc1cc(Cl)ccc1OC (stereo not given) | 0.05
Cc1nc2scc(C)n2c(=O)c1S(=O)(=O)NCc1ccccc1Cl | -0.28
CCOc1ccc(CNC(=O)c2cc3c(s2)-c2ccccc2OC3)cc1 | -0.64
CC(C)CCCN1CCOC2(CCN(C(=O)c3cn(C)cn3)CC2)CC1=O | 0.31
O=C(Cn1c(=O)n(-c2ccc(F)cc2)c(=O)c2sc3ccccc3c21)NC1CCCCC1 | -2.2
COCCN1CC2(CCCN(CC(=O)Nc3ccc(F)cc3)C2)CCC1=O (stereo not given) | -0.26
CC(C)(C)C1CCc2onc(C(=O)Nc3sc4c(c3C#N)CCCC4)c2C1 (stereo not given) | 2
CCCC(=O)Nc1ccc(OCC(O)CNC(C)C)c(C(C)=O)c1 (stereo not given) | -1.4
COCCN1CC(Cc2nc(-c3ccccc3)nc3ccccc23)CC1=O (stereo not given) | -3
COc1ccccc1-c1cc2nc(C)c(CCC(=O)NC3CCCCC3)c(C)n2n1 | -0.65
Cc1ccc(NC(=O)c2oc3ccccc3c2NC(=O)Cc2cccs2)cc1 | 0.11
CCC(CO)NC(=O)C1(N(C)CCc2ccccc2)Cc2ccccc2C1 (stereo not given) | -1.3
COc1ccc(-n2c(=O)c3sc4ccccc4c3n(CC(=O)N3CCCC3)c2=O)cc1 | -0.99
Cc1csc2nc(COc3ccccc3NC(=O)c3ccco3)cc(=O)n12 | 0.34
CCOC(=O)Cn1c(CN2CCN(c3ccc(OC)cc3)CC2)nc2c1c(=O)[nH]c(=O)n2C | -0.34
CCc1ccccc1NC(=O)Cn1cc2c(n1)CCC(C)C2 (stereo not given) | -1.1
CCOC(=O)C1CCN(c2nc3ccccc3nc2Cl)CC1 | -1.1
CCc1nn(CC(=O)NCCN(CC)CC)c(=O)c2cc3occc3n12 | 0.4

Bioassay records deposited in PubChem BioAssay by ICCB-Longwood Screening Facility, Harvard Medical School.
